Screening results: PubChem BioAssay, National Center for Advancing Translational Sciences (NCATS)
HPGD inh – qHTS Assay for Inhibitors of HPGD (15-Hydroxyprostaglandin Dehydrogenase); 15-hydroxyprostaglandin dehydrogenase [NAD(+)] (Homo sapiens), P15428; purified HPGD, NADH fluorescence kinetic, PGE2 substrate; Potency, µM, inactives show at the top dose activity change, negative = inhibition, hits mostly inhibitors; 150,000 tested, 4.3% active; AID 894, 2007; active = well fitted inhibition curve with a large enough effect (not every such curve was filed as active); inconclusive = small, poorly fitted or top-dose-only effect, or another doubt; inactive = no such curve, though single readings can be large or run the other way;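 further: top concentration of the series not given in the record; plate controls included wells without enzyme; inactives centre near -10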
Target sequence (P15428 whole entry, looked up): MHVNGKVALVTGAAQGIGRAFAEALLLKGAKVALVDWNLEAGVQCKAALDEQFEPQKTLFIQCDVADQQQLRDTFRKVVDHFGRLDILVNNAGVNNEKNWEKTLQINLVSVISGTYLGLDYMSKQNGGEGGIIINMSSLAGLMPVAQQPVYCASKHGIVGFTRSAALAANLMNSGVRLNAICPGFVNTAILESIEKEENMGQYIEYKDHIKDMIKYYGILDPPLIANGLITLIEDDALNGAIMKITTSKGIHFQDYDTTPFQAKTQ
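NADH formation kinetics: reaction with 30 uM PGE2 and 1 mM NAD+ (final), 20 nM enzyme, Tris-HCl pH 8 with Tween 20, after 15 min compound preincubation at room temperature. Fluorescence change, last versus first of five reads.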
Starred values were filed as active, the others as inactive; [ ] = remark or other dose. On the % scale 0 is the no-effect control and ±100 the full control effect; potency means the concentration at half of the fitted maximal effect. Some of the compounds tested (hit frequency here may not be typical).

Screening CCOc1ccccc1NC(=O)N1CCC(n2nnc3cc(C)ccc32)CC1 returned HPGD inh -4%.
For Cc1c(-c2cccs2)[n+](=O)c2c(n1[O-])CCCCC2 the results were HPGD inh -8%.
`Cn1c(=O)cc(OCCCC(=O)NCCCN2CCN(Cc3ccccc3)CC2)c2ccccc21` gave HPGD inh -6%.
CC(=O)C1=C(C)NC(=O)NC1c1ccccc1OCC(=O)NCCc1ccccc1 (stereo not given) was read as HPGD inh -5%.
Screening O=C(Oc1cccc2cccnc12)c1ccco1 returned HPGD inh 1%.
For COC(=O)c1cc(C(=O)OCC(=O)NCc2ccc3c(c2)OCO3)cc([N+](=O)[O-])c1 the results were HPGD inh 5%.
CCN(CC)S(=O)(=O)c1cccc(C(=O)Nc2cccc(C)c2)c1 was read as HPGD inh -8%.
`CCCCC1N2CC3([N+](=O)[O-])CN1CC([N+](=O)[O-])(C2)C3(C)C` (stereo not given) gave HPGD inh -9%.
`CC1CCN(c2ccc([N+](=O)[O-])cn2)CC1` gave HPGD inh -17%.
`CSCC[C@H](NC(=O)OC(C)(C)C)c1nnc(SCc2cccc(F)c2)o1` gave HPGD inh -14%.
COc1ccc2nc(NCCO)[nH]c2c1 was read as HPGD inh -6%.
Cc1ccc(C(=O)N2CCN(c3ccc([N+](=O)[O-])c(N4CCOCC4)c3)CC2)cc1 was read as HPGD inh -7%.
`O=C(Cn1c(-c2ccccc2Cl)nc2ccccc21)Nc1cccc(Cl)c1` gave HPGD inh -9%.
Screening O=C(Nc1ccccc1-c1nnn(CC(=O)N2CCCc3ccccc32)n1)c1ccco1 returned HPGD inh inconclusive.
Cc1ccc(NC(=O)c2ccc(OC(F)(F)F)cc2)cc1S(=O)(=O)N(C)C was read as HPGD inh -5%.
`O=C(Cc1sc(-c2ccccc2)nc1-c1ccccc1)Nc1ccc(Cl)cc1` gave HPGD inh -2%.
`Cc1ccccc1NC(=S)NCc1ccc2c(c1)cc(C)n2C` gave HPGD inh -14%.
`Cc1ccn(S(=O)(=O)c2ccc(C(C)(C)C)cc2)n1` gave HPGD inh -9%.
`COc1ccc(Cl)cc1NC(=O)CSc1nnc(-c2ccncc2)n1CC1CCCO1` (stereo not given) gave HPGD inh -6%.
Screening Cc1ccc(S(=O)(=O)NC(N)=NCCc2ccc(Cl)cc2)cc1 returned HPGD inh 1%.
Screening Cc1ccc(C(=O)N2NC(c3ccccc3F)C3C(=O)N(c4cccc(C)c4)C(=O)C32)cc1 (stereo not given) returned HPGD inh -28%.
For CCC(=O)Nc1ccc(Cl)c(NC(=S)NC(=O)c2ccco2)c1 the results were HPGD inh -1%.
COCCn1nnnc1C(c1cc2c(C)cc(C)cc2[nH]c1=O)N1CCCCCC1 (stereo not given) was read as HPGD inh inconclusive.
For Cc1ccc(NS(=O)(=O)c2cccc(C(=O)O)c2)cc1S(=O)(=O)N1CCCCC1 the results were HPGD inh -1%.
O=C(NC12CC3CC(CC(C3)C1)C2)c1cncc(O)c1 was read as HPGD inh -11%.
`CCN1CCN(c2ccc(NC(=O)c3ccc4c(c3)[nH]c(=O)n4Cc3ccc(OC)cc3)cc2)CC1` gave HPGD inh -18%.
O=C(Nc1nc2ccccc2n1CCN1CCCCC1)c1ccco1 was read as HPGD inh -1%.
Screening Cc1cc(NC(=O)CCCC(=O)N(CC(=O)NC2CCCCC2)c2ccccc2)no1 returned HPGD inh 2%.
`CCC(=O)Nc1ccc(C(=O)Cn2nc(C(=O)O)c3ccccc3c2=O)cc1` gave HPGD inh -10%.
Screening CCOC(=O)c1cnc(SCC(=O)Nc2cccc(OC)c2)nc1N returned HPGD inh -15%.
For CCOC(=O)c1nnc(-c2ccccc2)nc1NCc1ccc(Cl)cc1 the results were HPGD inh -6%.
COc1nnc(OC)c2ccccc12 was read as HPGD inh -2%.
Screening CCN(CC)S(=O)(=O)c1cccc(-c2nnc(SCC(=O)c3cc(C)n(C)c3C)o2)c1 returned HPGD inh -18%.
Screening CCCS(=O)(=O)NCCc1cc2c(OC)ccc(OC)c2[nH]c1=O returned HPGD inh -9%.
Screening CCC(=O)Nc1ccc(NC(=S)NC(=O)c2oc3ccccc3c2C)cc1 returned HPGD inh -11%.
CS(=O)(=O)N(CC(N)=O)c1cccc(Br)c1 was read as HPGD inh -9%.
`O=C(C1CCC(=O)N1Cc1cccnc1)N1CCN(c2ccc(F)cc2)CC1` (stereo not given) gave HPGD inh -7%.
For COc1cccc(Cn2c(=S)[nH]c3ccc(N4CCOCC4)cc3c2=O)c1 the results were HPGD inh inconclusive.
Screening COc1cccc(OC)c1OCCCCN1CCCC1 returned HPGD inh 3%.
C=CCn1c(=N)c(C(=O)NCCCOC)cc2c(=O)n3cc(C)ccc3nc21 was read as HPGD inh inconclusive.
Screening O=C(CN1C(=O)c2ccccc2C1=O)NNC1=NS(=O)(=O)c2ccccc21 returned HPGD inh -14%.
Screening Cc1ccccc1C(=O)NC1CC(C)(C)NC(C)(C)C1 returned HPGD inh -1%.
`Cc1oc(-c2ccc(Cl)cc2)nc1CN1CCC(C(=O)NCc2cccnc2)CC1` gave HPGD inh -9%.
For c1ccc2c(-n3cccn3)cccc2c1 the results were HPGD inh -9%.
`COC(=O)c1cc(OC)c(OC)cc1NC(=O)C1CCC(=O)N1S(=O)(=O)c1ccc(C)cc1` (stereo not given) gave HPGD inh -16%.
For COc1ccc(CC(=O)OCC(=O)Nc2c(C)n(C)n(-c3ccccc3)c2=O)cc1 the results were HPGD inh -7%.
CCNC(=O)CN(c1ccc(Cl)cc1)S(=O)(=O)c1ccccc1 was read as HPGD inh -9%.
O=C(CSc1nc2c(sc3ccccc32)c(=O)n1Cc1ccco1)NCC1CCCO1 (stereo not given) was read as HPGD inh 5%.
`Cc1cc2cc(CNC(=O)CC(C)C)ccc2n1C` gave HPGD inh 2.2µM*.
Screening O=C(Nc1ccc2oc(-c3cccnc3)nc2c1)c1ccco1 returned HPGD inh inconclusive.
N#Cc1cccnc1Nc1cccc(Cl)c1 was read as HPGD inh -11%.
`COc1cc(NS(=O)(=O)c2ccc(NC(=O)COc3ccccc3C)cc2)nc(OC)n1` gave HPGD inh -17%.
Screening CN(C)S(=O)(=O)c1ccc(N2CCCC2)c(C(=O)Nc2ccc(N3CCOCC3)cc2)c1 returned HPGD inh -18%.
`FC(F)(F)c1cc(-c2ccc(Cl)cc2)nc(NCc2cccnc2)n1` gave HPGD inh -13%.
`CCCCn1c(SCC(=O)N2CCC(C(=O)OCC)CC2)nc2cc(S(N)(=O)=O)ccc21` gave HPGD inh -16%.
Screening Cn1ccnc1SC(=O)N1c2ccccc2Sc2ccccc21 returned HPGD inh -13%.
`CCCC1(C(=O)OCC)NC(c2ccc(OC)cc2OC)C2C(=O)N(c3ccc4c(c3)OCCO4)C(=O)C21` (stereo not given) gave HPGD inh -14%.
For O=C(NCCCn1ccnc1)C(=O)NCC1OCCN1S(=O)(=O)c1ccc(Cl)cc1 (stereo not given) the results were HPGD inh -4%.
`C#CCCCCCCCCCCCC(O)CC(O)CO` (stereo not given) gave HPGD inh -3%.
For CC1(C)CC(=O)C2=C(C1)Nc1[nH]n(-c3ccccc3)c(=O)c1C2c1ccc2c(c1)OCO2 (stereo not given) the results were HPGD inh -11%.
For O=C(CN1C(=O)/C(=C\c2ccc(C(F)(F)F)cc2)Sc2ccccc21)NCc1ccco1 the results were HPGD inh 33%[activator].
`CCOC(=O)c1ccc(Cn2cnc3ccccc3c2=O)cc1` gave HPGD inh -12%.
Screening CO/N=C/NC(=O)c1c(OC)ccnc1Oc1ccc(F)cc1 returned HPGD inh 1%.
`O=C(O)c1cccc(N/N=C/c2sc(N3CCOCC3)nc2-c2ccccc2)c1` gave HPGD inh -28%.
Cc1nc2cc(-c3cccc(F)c3)nn2c(N2CCN(C(=O)c3ccco3)CC2)c1C was read as HPGD inh inconclusive.
For NS(=O)(=O)c1ccc(CCNC(=S)Nc2ccc(S(N)(=O)=O)cc2)cc1 the results were HPGD inh inconclusive.
For COc1cccc(-n2nc(C(C)=O)c(C#N)c2-c2ccco2)c1 the results were HPGD inh -1%.
`COCCCNC(=S)NC1CC2CCCC(C1)N2Cc1ccco1` (stereo not given) gave HPGD inh -5%.
`Cc1ccc(NC(=O)c2cc(-c3cccs3)on2)cc1` gave HPGD inh -30%.
For O=C(O)/C=C/C(O)c1ccc(Cl)cc1 (stereo not given) the results were HPGD inh -10%.
Screening CCn1c(SCC(=O)c2cccs2)nnc1-c1ccco1 returned HPGD inh -18%.
For CC(C)(C)OCC1CO1 (stereo not given) the results were HPGD inh -1%.
Screening O=C(NC(=S)Nc1ccc(CN2CCOCC2)cc1)c1cccc([N+](=O)[O-])c1 returned HPGD inh -28%.
Screening O=C(Nc1ccc2c(c1)C(=O)N(C1CCCCC1)C2=O)C1CCCO1 (stereo not given) returned HPGD inh inconclusive.
Screening CCc1ccc(C2CC(c3ccco3)=NN2S(C)(=O)=O)cc1 (stereo not given) returned HPGD inh -4%.
`OC(COc1c(Cl)cc(Cl)cc1Cl)CN1CCCCC1` (stereo not given) gave HPGD inh -3%.
`C/C(=N\Nc1ccc(C(=O)O)cc1)c1nc2ccccc2n1C` gave HPGD inh 16µM*.
Screening O=C(O)C1CCCCC1C(=O)OCCCCOC(=O)C1CCCCC1C(=O)O (stereo not given) returned HPGD inh 0%.
For Cc1cnc(NC(=O)CSc2ncn(-c3ccccc3)n2)s1 the results were HPGD inh -11%.
O=C1CC[C@@]23CCCN2C(=O)CCCC3C1 (stereo not given in full) was read as HPGD inh -14%.
COc1ccccc1OCc1ccc(C(=O)N2N=C(C(F)F)CC2(O)C(F)F)o1 (stereo not given) was read as HPGD inh -5%.
For Cc1ccc2oc(-c3ccc(NC(=O)CC(C)C)cc3)nc2c1 the results were HPGD inh inconclusive.
`N#CCn1c(C2CCCCC2)nc2ccccc2c1=O` gave HPGD inh -19%.
Screening CCNC(=S)NNC(=O)c1csc2c1CCCC2 returned HPGD inh -11%.
`CCCC(=Nc1ccccc1OC)C1=C(O)CC(c2ccccc2)CC1=O` (stereo not given) gave HPGD inh -5%.
COC(=O)C(NC(C)=O)(Nc1nc2c(C)cc(C)cc2s1)C(F)(F)F (stereo not given) was read as HPGD inh -11%.
Cc1cnc(NC(=O)CN2CCN(c3ccccn3)CC2)s1 was read as HPGD inh -12%.
Screening CNC(=O)CCC(=O)Nc1ccc(C(=O)OC)cc1 returned HPGD inh -20%.
For CCCC(=O)Nc1nc(-c2ccc3c(c2)CCN3S(C)(=O)=O)cs1 the results were HPGD inh -19%.
For O=C(NCc1cccnc1)c1cccc(C(F)(F)F)c1 the results were HPGD inh -1%.

16 entries out of the list, ordered by number of heavy atoms, smallest number first.
COc1nnc(OC)c2ccccc12 was read as HPGD inh -2%.
For c1ccc2c(-n3cccn3)cccc2c1 the results were HPGD inh -9%.
O=C1CC[C@@]23CCCN2C(=O)CCCC3C1 (stereo not given in full) was read as HPGD inh -14%.
For Cc1c(-c2cccs2)[n+](=O)c2c(n1[O-])CCCCC2 the results were HPGD inh -8%.
`OC(COc1c(Cl)cc(Cl)cc1Cl)CN1CCCCC1` (stereo not given) gave HPGD inh -3%.
`CCCCC1N2CC3([N+](=O)[O-])CN1CC([N+](=O)[O-])(C2)C3(C)C` (stereo not given) gave HPGD inh -9%.
For CCC(=O)Nc1ccc(Cl)c(NC(=S)NC(=O)c2ccco2)c1 the results were HPGD inh -1%.
COC(=O)C(NC(C)=O)(Nc1nc2c(C)cc(C)cc2s1)C(F)(F)F (stereo not given) was read as HPGD inh -11%.
For NS(=O)(=O)c1ccc(CCNC(=S)Nc2ccc(S(N)(=O)=O)cc2)cc1 the results were HPGD inh inconclusive.
For COc1cccc(Cn2c(=S)[nH]c3ccc(N4CCOCC4)cc3c2=O)c1 the results were HPGD inh inconclusive.
Screening O=C(NC(=S)Nc1ccc(CN2CCOCC2)cc1)c1cccc([N+](=O)[O-])c1 returned HPGD inh -28%.
`Cc1oc(-c2ccc(Cl)cc2)nc1CN1CCC(C(=O)NCc2cccnc2)CC1` gave HPGD inh -9%.
Screening CCN(CC)S(=O)(=O)c1cccc(-c2nnc(SCC(=O)c3cc(C)n(C)c3C)o2)c1 returned HPGD inh -18%.
Screening O=C(Nc1ccccc1-c1nnn(CC(=O)N2CCCc3ccccc32)n1)c1ccco1 returned HPGD inh inconclusive.
`CCN1CCN(c2ccc(NC(=O)c3ccc4c(c3)[nH]c(=O)n4Cc3ccc(OC)cc3)cc2)CC1` gave HPGD inh -18%.
`CCCC1(C(=O)OCC)NC(c2ccc(OC)cc2OC)C2C(=O)N(c3ccc4c(c3)OCCO4)C(=O)C21` (stereo not given) gave HPGD inh -14%.

Continued:
`CC1(C)Cc2noc(N)c2C(C)(C)N1OC(=O)c1scc2c1OCCO2` gave HPGD inh 5%.
Cc1ccc(S(=O)(=O)CC(=O)NC2CC2)cc1 was read as HPGD inh -1%.
N#CC(C#SN)=C1CCCCC1 was read as HPGD inh -13%.
For COC(=O)c1sccc1NC(=O)CN(C)NS(=O)(=O)c1ccc(Cl)cc1 the results were HPGD inh -9%.
Screening O=C(Cn1[nH]c(=O)c2ccccc2c1=O)Nc1cccc(-c2nnc3n2CCCCC3)c1 returned HPGD inh 14µM*.
For CCOC(=O)N1CC=C2C(C#N)=C(N)C(C#N)(C#N)[C@H](c3ccccc3OCC)[C@H]2C1 the results were HPGD inh -6%.
Cc1ccccc1C(=O)N1CCC(C(=O)O)CC1 was read as HPGD inh 4%.
`CCOC(=O)c1ccc(CNCc2ccc(Br)cc2)cc1` gave HPGD inh -9%.
For CC(C)[C@H](NS(=O)(=O)c1ccc2c(c1)OCCO2)C(=O)OCC(=O)Nc1cc(Cl)ccc1Cl the results were HPGD inh -18%.
CN(C)/C=C1/N=C(c2ccccc2)OC1=O was read as HPGD inh -20%.
CCSC1=C(C#N)C(c2ccccc2OC)CC(=O)N1 (stereo not given) was read as HPGD inh -8%.
CN1CCN(C2=C(Cl)C(=O)N(c3cccc(Cl)c3)C2=O)CC1 was read as HPGD inh -1%.
